From PubChem BioAssay
HTT promoter inh: inhibitors of huntingtin promoter activity; HEK293 HTT promoter firefly luciferase reporter (activity 0% = vehicle and -100% = no light), 24 h; Potency, µM (titrated, usually from 57.5 µM), for inactives: at the highest dose activity change, negative = inhibition, actives largely listed as inhibitors; actives 0.93% (n = 48,000); active = well fitted inhibition curve with a large enough effect; inconclusive = small, poorly fitted or top-dose-only effect; inactive = no such curve, though single readings can be large or run the other way; note: nearly all actives have a fitted effect of over 50% in size
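Quantitative HTS used concentration series of up to 57.5 uM final on HEK293 luciferase reporter cells, 24 h at 37 degrees C. Readout was Dual-Glo firefly luminescence.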
PMP22 txn: modulates PMP22 transcription in S16 Schwann cells | S16 Pmp22-F2sN Schwann cells (luciferase reporters placed in the Pmp22 gene), FLuc/NLuc coincidence luminescence, 24 h | actives 2% (n = 43,000) | AID 1508649 | Potency, µM (titrated, usually from 57.5 µM), for inactives: at the highest dose activity change, negative = inhibition, actives largely listed as inhibitors; active = clear falling dose curves in both reporters; inconclusive = both reporters move, but less clearly or upward; inactive = either reporter flat; the % is the NLuc reporter signal; note: % is set by controls: 0 for no effect and ±100 for the full control effect; some results filed as inactive show a strong effect at the top dose
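Rat S16 Pmp22-F2sN cells, 500-1,000/well in phenol red-free DMEM + 10% FBS, compound-treated 24 h (37C, 5% CO2). Luminescence: FLuc read, Stop&Glo added, NLuc read.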
Active calls of the source: *; ? = inconclusive; nt = no result given; [ ] = dose if it differs, or a comment. Potency is the fitted concentration of half-maximal effect.

SMILES	HTT promoter inh	PMP22 txn
CCOC(=O)c1c(C)oc2nc(C)nc(N3CCN(c4cccc(C(F)(F)F)c4)CC3)c12	25.1µM*	-21.6%
Cc1ccc(C)c(Cn2nc(C)n3c(cc4cc(C)ccc43)c2=O)c1	35.2%[activator]	-1.6%
CCCC(=O)Nc1cc(C(=O)NCc2ccc(OC)cc2)ccc1S(=O)(=O)c1ccc(Cl)cc1	18.1%	-20.9%
COc1cc(OC)c(OC)cc1CNc1sc2c(c1C(=O)Nc1ccccc1OC)CCC2	-16.9%	-12.7%
COc1cc(OC)c(NC(=O)c2csc3c2CCC(C)C3)cc1Cl (stereo unspecified)	2.0%	-14.9%
O=C(NCC(c1ccc(Cl)cc1)N1CCCCC1)c1ccc(F)cc1 (stereo unspecified)	-18.1%	-0.1%
COc1ccc(NC(=O)c2cc3nc(-c4ccc(Cl)c(Cl)c4)cc(C(F)(F)F)n3n2)c(OC)c1	3.3%	-4.7%
CCc1ccc(NC(=O)CN2CCSc3ccc(S(=O)(=O)N4CCCC4)cc32)cc1	31.6µM*	17µM*
O=C(COc1ccccc1F)OCc1cc(=O)n2nc(C3CC3)sc2n1	-14.9%	-1.8%
CC(C)C1C(=O)Nc2ccc(S(=O)(=O)NCCc3ccc(Cl)cc3)cc21 (stereo unspecified)	?	2.1%
COCCCNC(=O)c1[nH]c2ccccc2c1Sc1ccc(C)cc1	-20.5%	15.4%
COc1ccc(NC(=O)Cn2ncc3c(C)n(Cc4cccc(Cl)c4)c(C)c3c2=O)cc1	-2.3%	-25.8%
Cc1cc(C)cc(Nc2nnc(-n3nc(C)cc3C)c3ccccc23)c1	-17.3%	?
Cc1ccc(NC(=O)CSc2n[nH]c(-c3ccc(F)cc3)n2)cc1F	-8.3%	14.9%
CCNC(=O)c1c(C)oc2ncn(C)c(=O)c12	-16.5%	3.9%
O=C(Nc1cccc(Cl)c1)c1cnc[nH]1	62.4%[activator]	6.6%
COc1cccc(NC(=O)C2CCCN2S(=O)(=O)c2ccc3c(c2)C(C)(C)C(=O)N3C)c1 (stereo unspecified)	?	3.9%
CCC(C)NC(=O)CSCc1nc(-c2ccc(C)cc2)oc1C (stereo unspecified)	?	?
Cc1ccccc1CNC(=O)C1CCN(c2nn3cc(-c4ccc(F)cc4)nc3s2)CC1	10.0%	-22.3%
Cc1ccc(-n2c(SCC(=O)NCc3ccc(F)cc3)nc3c([nH]c4ccccc43)c2=O)cc1	-34.2%	?
Cc1nc(-c2ccc(Cl)cc2)sc1CCNC(=O)C(=O)Nc1ccccc1C#N	-25.5%	-117.1%
O=C(NNC(=O)c1ccc(CNS(=O)(=O)c2ccc(F)c(Cl)c2)cc1)c1ccccc1	30.5%[activator]	nt
NC(=O)COCCN1CCN(C(c2ccccc2)c2ccc(Cl)cc2)CC1 (stereo unspecified)	2.8%	nt
COc1cc2ccccc2cc1C(=O)Nc1cccc(-c2nc3cc(C)c(C)cc3o2)c1C	-15.5%[11.5 µM]	-3.6%
COc1ccc(Cc2nc3ccccc3n2Cc2ccccc2F)cc1	-10.0%	-94.1%
CCN(CC)CCOC(=O)C1(C2CCCCC2)CCCCC1	2.3%	nt
O=C(NCCc1ccccc1Cl)C1CCN(c2nc3ccccc3nc2C(F)(F)F)CC1	-10.0%	9.46µM*
COc1ccc(S(=O)(=O)n2nc(-c3ccco3)nc2NCc2ccc(OC)c(OC)c2)cc1	-16.1%	-23.7%
O=C1[C@@H]2CSC(c3ccc(C(F)(F)F)cc3)N2C(=O)N1c1ccccc1 (stereo partly specified)	-20.9%	0.5%
CCOC(=O)c1c(C)c(-c2ccccc2)n(CC(=O)NC(CC)Cc2ccccc2)c1C (stereo unspecified)	-5.7%	-23.4%
COc1ccc(NC(=O)c2oc3ccc(S(=O)(=O)N4CCC5(CC4)OCCO5)cc3c2C)cc1Cl	?	?
CC(C)c1ccc(NC(=O)c2cn(C3CCCC3)c(=O)c3c2c2ccccc2n3C)cc1	-26.5%	-14.4%
CC(=O)Nc1ccc(S(=O)(=O)N2CCC(Oc3ccc(-n4cnnn4)cc3)CC2)cc1	?	-27.2%
COc1ccccc1C(=O)Nc1nc(-c2ccc(Br)cc2)ns1	-4.0%	-20.5%
Cc1cccc(CN2C(=O)c3ccccc3S(=O)(=O)c3ccc(C(=O)N4CCCC4)cc32)c1	-19.4%	-5.3%
Cc1cccc(Nc2ncnc3c2cnn3C)c1C	-11.3%	-25.6%

Seven entries picked at random from those above, as already listed:
SMILES	HTT promoter inh	PMP22 txn
Cc1ccccc1CNC(=O)C1CCN(c2nn3cc(-c4ccc(F)cc4)nc3s2)CC1	10.0%	-22.3%
COc1cc(OC)c(NC(=O)c2csc3c2CCC(C)C3)cc1Cl (stereo unspecified)	2.0%	-14.9%
COc1ccccc1C(=O)Nc1nc(-c2ccc(Br)cc2)ns1	-4.0%	-20.5%
Cc1ccc(-n2c(SCC(=O)NCc3ccc(F)cc3)nc3c([nH]c4ccccc43)c2=O)cc1	-34.2%	?
Cc1cccc(CN2C(=O)c3ccccc3S(=O)(=O)c3ccc(C(=O)N4CCCC4)cc32)c1	-19.4%	-5.3%
CC(C)c1ccc(NC(=O)c2cn(C3CCCC3)c(=O)c3c2c2ccccc2n3C)cc1	-26.5%	-14.4%
CCNC(=O)c1c(C)oc2ncn(C)c(=O)c12	-16.5%	3.9%

Next compounds follow.
SMILES	HTT promoter inh	PMP22 txn
Cc1ccc(CNC(=O)Cn2nc(N3CCN(c4ccccc4)CC3)ccc2=O)cc1	-23.1%	2.2%
CCOc1ccc(CCNC(=O)CN2C(=O)COc3ccc(S(=O)(=O)N4CCCC4)cc32)cc1	-25.5%	-27.9%
O=C(CCCCC(=O)Nc1c(I)cc(I)c(C(=O)O)c1I)Nc1c(I)cc(I)c(C(=O)O)c1I	-2.9%	nt
COc1ccccc1C(=O)NCc1nc2cccnc2n1Cc1ccc(F)cc1	3.0%	-36.0%
O=S(=O)(c1ccc(-c2cnc(C3CC3)o2)cc1)N1CCN(c2ccc(F)cc2)CC1	?	?
COc1ccc(Nc2c3c(nc4ccc(NC(=O)c5cc(Cl)ccc5OC)cc24)CCCC3)cc1OC	?	4.74µM*
COc1cccc(NC(=O)C(C)n2c(=O)cc(C(F)(F)F)c3c(C)nn(C)c32)c1 (stereo unspecified)	?	?
Cc1c(C)n(Cc2ccccc2)c2ccc(C(=O)NCC(C)c3ccccc3)cc12 (stereo unspecified)	-4.5%	-28.1%
Cc1ccc(CNC(=O)CSc2nc3c(sc4ccccc43)c(=O)n2CCCOC(C)C)cc1	-15.0%	-4.1%
COc1ccc(CNC(=O)Cn2ccc3cc(S(=O)(=O)N4CCCCCC4)ccc32)c(OC)c1	?	?
CN(C)c1ccc(CN(CC2CCCO2)C(=O)COc2ccccc2Cl)cc1 (stereo unspecified)	?	?
CCc1ccc(-c2cn3c(n2)sc2cc(C(=O)NCCCc4ccccc4)ccc23)cc1	-1.4%	0.4%
CCOC(=O)c1c(C)oc2nc(C)nc(NCCc3ccc(Cl)cc3)c12	-4.7%	-35.1%
O=C(Cn1c(=O)nc(-c2ccccc2)c2ccccc21)Nc1ccc(Cl)c(C(F)(F)F)c1	-12.9%	-2.0%
CCCCC(=O)Nc1ccc2nc(SCC(=O)N3CCCC3)sc2c1	23.8%	-6.8%
CC1=C(C(=O)Nc2ccc(C)cc2C)C(CC(C)C)n2nc(SCc3ccccc3C)nc2N1 (stereo unspecified)	-6.3%	3.3%
Cc1ccc(NC(=O)Cc2coc3ccc(C(C)C)cc23)cc1Cl	?	?
Cc1ccc(C)c(NC(=O)C2CCN(S(=O)(=O)c3c(C)noc3/C=C/c3cccs3)CC2)c1	?	-6.2%
COc1ccc(OCC(=O)N2CCN(C(=O)c3ccc(OC)c(OC)c3)CC2)cc1	2.5%	1.8%
O=C(NCc1ccccc1)c1ccc2c(c1)nc1n2CCCCC1	18.7%	-12.8%
Cc1ccc(Cl)cc1N1CCN(C(=O)Cn2cnc3sc(C)c(S(=O)(=O)N4CCC(C)CC4)c3c2=O)CC1	?	?
CCCCc1nn2c(=O)cc(COC(=O)CNC(=O)c3ccccc3C)nc2s1	-17.2%	-7.4%
CSc1ccc(CCNC(=O)c2cc3cc4cc(C)ccc4nc3s2)cc1	27.5%	-32.0%
COc1cccc2c1cc1c(=O)n(CC(=O)N3CCCCC3)nc(C)n12	-0.4%	-24.7%
O=C(c1cccc(Cl)c1)n1nc(-c2cccnc2)nc1NCc1ccccc1	-18.2%	3.5%
Cc1ccc(NC(=O)c2cccc(N3CCCS3(=O)=O)c2)cc1	10.0%	?
Oc1ccccc1-c1nc(/C=C/c2ccc(F)cc2)nn1-c1ccccc1	6.2%	17.2%
CCOC(=O)c1oc2ccc(S(=O)(=O)n3nc(-c4cc(OC)cc(OC)c4)cc3N)cc2c1C	-25.6%	-6.0%
CCOC(=O)N1CCC(NC(=O)c2ccc3c(c2)N(Cc2ccc(F)cc2)C(=O)c2ccccc2S3=O)CC1 (stereo unspecified)	?	?
CCc1nnc2c3ccccc3nc(Nc3ccc(C(C)=O)cc3)n12	-32.6%[11.5 µM]	-7.3%
Cc1ccc(C)c(N2CCN(C(=O)CCNS(=O)(=O)c3ccc4c(c3)CCN4C(=O)C3CC3)CC2)c1	?	?
O=C1c2oc3ccccc3c(=O)c2C(c2cccc(O)c2)N1c1nncs1 (stereo unspecified)	-11.4%	4.8%
CCNC(=O)c1ccc2nc(CCc3ccccc3)oc2c1	18.4%	-14.8%
CCCCCCCCNC(C)C(O)c1ccc(SC(C)C)cc1 (stereo unspecified)	1.9%	nt
COc1ccc(NC(=O)CN2C(=O)CCn3nc(-c4cccn4C)cc32)cc1Cl	-21.0%	-7.3%
Cc1ccc(NC(=O)CCCc2nc(-c3ccco3)no2)cc1Cl	1.0%	1.0%
CCN(CCCNC(=O)c1cc2c(=O)n(C)c3ccccc3c2s1)Cc1ccccc1	21.7%	?
COc1cc(/C=C/C(=O)O[C@H]2CC[C@]34C[C@]35CC[C@]3(C)[C@@H]([C@H](C)CCC=C(C)C)CC[C@@]3(C)[C@@H]5CC[C@H]4C2(C)C)ccc1O	0.0%	nt
CC(C)c1ccc(NC(=O)C2CCCN2S(=O)(=O)c2ccc3nc(-c4ccccc4)[nH]c3c2)cc1 (stereo unspecified)	-28.1%	?
CCCCNC(=O)c1c(C)oc2ncn(CC(C)C)c(=O)c12	-20.7%	10.6µM*
Cc1ccc(S(=O)(=O)c2nnn3c2nc(NCc2cccs2)c2sccc23)cc1C	-7.9%	?
Cc1ccccc1NC(=O)Cn1nnc(C(=O)NCc2ccco2)c1N	-20.4%	-25.2%
Cc1ccc(-c2cc(C(F)(F)F)n3nc(C(=O)Nc4sc5c(c4C#N)CCC(C)C5)cc3n2)cc1 (stereo unspecified)	-4.3%[11.5 µM]	-5.7%
CCOc1ccc(C(=O)Nc2ccc(S(=O)(=O)N3CCCCC3c3cccnc3)cc2)cc1 (stereo unspecified)	?	?
COc1ccc(-c2nc3ccc(NS(C)(=O)=O)cc3o2)cc1	85.7%[activator]	8.4%
COc1ccc(NC(=O)Cn2c(=O)n(Cc3nc(-c4ccccc4)no3)c(=O)c3cc4c(cc32)OCO4)cc1Cl	-15.1%	?
Cc1ccc(-n2ncc3c(N4CCN(Cc5ccccc5)CC4)ncnc32)cc1C	?	?
CCCCN(CC)CCCNC(=O)c1sc2nc(C)cc(C)c2c1-n1cccc1	-1.3%	?
CCOC(=O)c1scc(-c2ccc(C)cc2)c1S(=O)(=O)Nc1cccc(CC)c1	?	?
NC(=O)CSc1ncc2c(n1)-c1ccccc1N(Cc1ccc(Cl)cc1)S2(=O)=O	-11.4%	12.4%
CCC(=O)N1CCc2cc(CNC(=O)c3ccc(OC)cc3)ccc21	-25.2%	?
Cc1cc(C)cc(NC(=O)CCN2C(=O)c3ccccc3Sc3ncccc32)c1	-17.1%	7.3%
CCOC(=O)C1CCN(C(c2ccc(C)cc2)c2c(O)cc(C)n(CCOC)c2=O)CC1 (stereo unspecified)	-7.8%	-4.9%
Cc1ccc(NC(=O)C2CCN(C(=O)c3cnn(-c4ccccc4)c3-n3cccc3)CC2)cc1Cl	-4.2%	?
CCCCNc1nc(Oc2ccc(=O)n(C)n2)nc(N2CCOCC2)n1	28.5%	-19.5%
COc1cc2c(cc1OC)n(CC(=O)c1ccc(F)cc1)c(=O)n1nc(CCn3nc(C)cc3C)nc21	16.3%	?
Cc1cccc(S(=O)(=O)c2cn(C)c3cc(N4CCN(c5ccc(F)cc5)CC4)c(F)cc3c2=O)c1	-20.7%	?
CC(C)(C)OC(=O)N1CCC(c2c(C(=O)N3CCN(c4ccccc4F)CC3)cnn2-c2ccccc2Cl)CC1	?	?
O=C1CN(C(=O)c2ccc(S(=O)(=O)N3CCCCC3)cc2)C(c2ccc(F)cc2)c2cc(Br)ccc2N1 (stereo unspecified)	-42.5%	?
Cc1cc(C)c(NC(=O)c2sc3nc(C)cc(C)c3c2N)c(C)c1	55.0%[activator]	-21.6%
Further entries.
SMILES	HTT promoter inh	PMP22 txn
CCOc1ccc(C(=O)Nc2ccc3nc(Nc4cccc(C(F)(F)F)c4)cc(C)c3c2)cc1OCC	-12.0%	?
CC(C)CN(CCNC(=O)c1cc(-c2ccc(Cl)s2)nc2ccccc12)CC(C)C	-5.1%	-12.7%
CCN(Cc1ccccc1)Cc1c(O)ccc2c(=O)c(-c3ccccc3Cl)c(C(F)(F)F)oc12	-10.5%	?
CCOC(=O)CC(=O)CSc1nc2ccccc2c(=O)n1CCc1ccc(S(N)(=O)=O)cc1	-20.7%	-3.4%
